Screening results (PubChem)
Vaccinia stage – Vaccinia orthopox stage-specific inhibition; 89,000 tested, 0.01% active; AID 1053133; activity change (mCherry), % (no concentration beside the values); Vaccinia-infected cells, mCherry/Venus stage reporter fluorescence; hits give low values; some inactives read as strong as hits;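 active = mCherry past -33% and 40 or more points under the early reporter, replicates agreeing; inconclusive = past -33% without that gap or agreement; tested in A549 cells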;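 also: scaled between vehicle wells and reference inhibitor wells; 23 nL library stock went into each well; one replicate is shown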
Vaccinia stage Venus – recorded beside Vaccinia stage, whose call it bears; activity change (Venus), %; measured here: Venus reporter, other viral stage;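 negative = less Venus signal; first of two replicates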
Numbers without * were called inactive; & = joins results of further samples.

Screening C[C@@H]1CN([C@@H](C)CO)C(=O)CCCn2nncc2CO[C@H]1CN(C)Cc1ccc(C(=O)Nc2ccccc2N)cc1 returned Vaccinia stage 2 and Vaccinia stage Venus -1.
Screening COC(=O)C[C@@H]1CC[C@H]2[C@@H](COc3ccc(NC(=O)c4ccccc4)cc3C(=O)N2C)O1 returned Vaccinia stage -2 and Vaccinia stage Venus 3.
OC[C@@H]1Nc2ccc(-c3ccccc3)cc2[C@H]2[C@@H]1CCN2Cc1ccccc1F was read as Vaccinia stage inconclusive.
For C[C@@H]1CN([C@H](C)CO)C(=O)c2cc(C3=CCCC3)cnc2O[C@H]1CN(C)C(=O)c1ccccc1 the results were Vaccinia stage -2 and Vaccinia stage Venus -1.
CO[C@@H](CN(C)C(=O)c1ccccc1F)[C@@H](C)CN([C@H](C)CO)S(=O)(=O)c1ccc(C)cc1 was read as Vaccinia stage 2 and Vaccinia stage Venus 4.
For Cc1cccc(-c2ccc([C@H]3[C@@H](CO)N4CCCCN(S(=O)(=O)c5cccc(C)c5)C[C@@H]34)cc2)c1 the results were Vaccinia stage inconclusive.
For CCCN1[C@@H]2c3ccc(-c4cccc(C(=O)N(C)C)c4)c(=O)n3C[C@@H]2[C@@H](CO)[C@@H]1C(=O)OC the results were Vaccinia stage 10 and Vaccinia stage Venus 4.
`C[C@H](CO)N1C[C@H](C)[C@H](CN(C)Cc2ccncc2)OCCCC[C@H](C)Oc2ccc(NC(=O)Nc3ccccc3)cc2C1=O` gave Vaccinia stage -23 and Vaccinia stage Venus -18.
C[C@@H]1CN([C@@H](C)CO)C(=O)c2cccc(NC(=O)C3CCOCC3)c2O[C@@H]1CN(C)Cc1ccccc1 was read as Vaccinia stage -1 and Vaccinia stage Venus 8.
For COc1cccc(S(=O)(=O)N[C@@H]2C=C[C@@H](CC(=O)NCc3ccc(Cl)cc3)O[C@@H]2CO)c1 the results were Vaccinia stage -5 and Vaccinia stage Venus -10.
C[C@H](O)C#Cc1cnc2c(c1)C(=O)N([C@@H](C)CO)C[C@H](C)[C@H](CN(C)C(=O)Nc1ccc(F)cc1)O2 was read as Vaccinia stage 9 and Vaccinia stage Venus 12.
Screening Cc1noc(C)c1NC(=O)N(C)C[C@@H]1Oc2ccc(NC(=O)Nc3cccc4ccccc34)cc2C(=O)N([C@@H](C)CO)C[C@H]1C returned Vaccinia stage 2 and Vaccinia stage Venus 2.
`COCC#Cc1ccc2c(c1)O[C@H](CN(C)C(=O)C1CC1)[C@H](C)CN([C@H](C)CO)S2(=O)=O` gave Vaccinia stage 16 and Vaccinia stage Venus -2.
Screening CC(C)(C)[S@](=O)N1Cc2cc(C(=O)O)nc(-c3cccc(-c4ccc(F)cc4)c3)c2[C@@H]1CCO returned Vaccinia stage 15 and Vaccinia stage Venus 13.
Screening CO[C@H]1CN(C)C(=O)c2cc(NC(=O)CC(F)(F)F)ccc2OC[C@H](C)N(C(=O)C2CCOCC2)C[C@@H]1C returned Vaccinia stage -2 and Vaccinia stage Venus 2.

Arranged by heavy-atom count (ascending): some entries from above.
For COc1cccc(S(=O)(=O)N[C@@H]2C=C[C@@H](CC(=O)NCc3ccc(Cl)cc3)O[C@@H]2CO)c1 the results were Vaccinia stage -5 and Vaccinia stage Venus -10.
CO[C@@H](CN(C)C(=O)c1ccccc1F)[C@@H](C)CN([C@H](C)CO)S(=O)(=O)c1ccc(C)cc1 was read as Vaccinia stage 2 and Vaccinia stage Venus 4.
Screening CC(C)(C)[S@](=O)N1Cc2cc(C(=O)O)nc(-c3cccc(-c4ccc(F)cc4)c3)c2[C@@H]1CCO returned Vaccinia stage 15 and Vaccinia stage Venus 13.
C[C@H](O)C#Cc1cnc2c(c1)C(=O)N([C@@H](C)CO)C[C@H](C)[C@H](CN(C)C(=O)Nc1ccc(F)cc1)O2 was read as Vaccinia stage 9 and Vaccinia stage Venus 12.
C[C@@H]1CN([C@@H](C)CO)C(=O)c2cccc(NC(=O)C3CCOCC3)c2O[C@@H]1CN(C)Cc1ccccc1 was read as Vaccinia stage -1 and Vaccinia stage Venus 8.
Screening CO[C@H]1CN(C)C(=O)c2cc(NC(=O)CC(F)(F)F)ccc2OC[C@H](C)N(C(=O)C2CCOCC2)C[C@@H]1C returned Vaccinia stage -2 and Vaccinia stage Venus 2.
Screening C[C@@H]1CN([C@@H](C)CO)C(=O)CCCn2nncc2CO[C@H]1CN(C)Cc1ccc(C(=O)Nc2ccccc2N)cc1 returned Vaccinia stage 2 and Vaccinia stage Venus -1.
`C[C@H](CO)N1C[C@H](C)[C@H](CN(C)Cc2ccncc2)OCCCC[C@H](C)Oc2ccc(NC(=O)Nc3ccccc3)cc2C1=O` gave Vaccinia stage -23 and Vaccinia stage Venus -18.

Additional structures follow:
Screening COCCNC(=O)C[C@H]1C[C@H]2c3cc(NS(=O)(=O)c4ccc(F)cc4)ccc3O[C@H]2[C@H](CO)O1 returned Vaccinia stage 16 and Vaccinia stage Venus 12.
Screening CC(C)NC(=O)N(C)C[C@@H]1Oc2c(NC(=O)Nc3cccc4ccccc34)cccc2C(=O)N([C@@H](C)CO)C[C@H]1C returned Vaccinia stage -30 and Vaccinia stage Venus -22.
Screening COc1ccccc1C#Cc1cnc2c(c1)C(=O)N([C@@H](C)CO)C[C@H](C)[C@H](CN(C)C(=O)c1ccc3c(c1)OCO3)O2 returned Vaccinia stage inconclusive.
`C[C@H]1CN([C@@H](C)CO)S(=O)(=O)c2ccc(C#CC3CCCC3)cc2O[C@H]1CN(C)C(=O)Cc1ccccc1` gave Vaccinia stage inconclusive.
For C[C@H]1CN([C@@H](C)CO)C(=O)Cc2cc(NC(=O)CCN3CCOCC3)ccc2O[C@@H]1CN(C)C(=O)Nc1ccc(C(F)(F)F)cc1 the results were Vaccinia stage 14 and Vaccinia stage Venus 4.
CCCC#Cc1ccc2c(c1)O[C@H](CN(C)CCC)[C@H](C)CN([C@H](C)CO)S2(=O)=O was read as Vaccinia stage inconclusive.
Screening C[C@@H]1CN([C@H](C)CO)C(=O)c2cc(NS(=O)(=O)c3cccs3)ccc2O[C@@H](C)CCCCO[C@H]1CN(C)Cc1ccc(Cl)c(Cl)c1 returned Vaccinia stage inconclusive.
`O=C(C1CCOCC1)N1CC(=O)N2[C@H](CO)[C@H](c3ccc(Br)cc3)[C@H]2C1` gave Vaccinia stage 5 and Vaccinia stage Venus -1.
Screening CN1c2ccc(-c3ccc(C#N)cc3)cc2[C@@H]2[C@@H](CCN2S(=O)(=O)c2ccc(F)cc2)[C@@H]1CO returned Vaccinia stage -20 and Vaccinia stage Venus -16.
C[C@@H]1CN([C@@H](C)CO)C(=O)c2cccc(NS(=O)(=O)c3ccc(Cl)cc3)c2O[C@H]1CN(C)C(=O)Nc1ccc2c(c1)OCO2 was read as Vaccinia stage 17 and Vaccinia stage Venus 16.
C[C@H]1CN([C@@H](C)CO)C(=O)c2cccc(NC(=O)c3cnccn3)c2O[C@H]1CN(C)S(=O)(=O)c1cn(C)cn1 was read as Vaccinia stage 5 and Vaccinia stage Venus 6.
Cc1noc(C)c1S(=O)(=O)N(C)C[C@@H]1Oc2ccc(NC(=O)Cc3cn(C)c4ccccc34)cc2CC(=O)N([C@H](C)CO)C[C@@H]1C was read as Vaccinia stage 2 and Vaccinia stage Venus 10.
`C[C@@H]1CN([C@@H](C)CO)C(=O)c2cc(-c3ccncc3)cnc2O[C@@H]1CN(C)C(=O)Cc1ccccn1` gave Vaccinia stage 27 and Vaccinia stage Venus 8.
`Cc1ccc(S(=O)(=O)N(C)C[C@@H]2Oc3cc(C#CC4CCCC4)ccc3S(=O)(=O)N([C@@H](C)CO)C[C@H]2C)cc1` gave Vaccinia stage -3 and Vaccinia stage Venus -4.
O=C(Nc1ccc(F)cc1)N1CCCCN2[C@H](CO)[C@@H](c3ccc(-c4cccc(F)c4)cc3)[C@H]2C1 was read as Vaccinia stage inconclusive.
Screening CCCNC(=O)NC[C@@H]1[C@H](c2ccc(C3=CCCC3)cc2)[C@@H](CO)N1C(=O)CC returned Vaccinia stage 1 and Vaccinia stage Venus 6.
`COCC#Cc1cnc2c(c1)C(=O)N([C@@H](C)CO)C[C@@H](C)[C@H](CN(C)Cc1ccc(F)cc1)O2` gave Vaccinia stage 8 and Vaccinia stage Venus -2.
For COc1ccc2c3c(n(C)c2c1)[C@H](CO)N(C(=O)C1CCOCC1)CC31CN(C(=O)C2CCOCC2)C1 the results were Vaccinia stage 10 and Vaccinia stage Venus 7.
Screening C[C@H](CO)N1C[C@H](C)[C@H](CN(C)S(C)(=O)=O)OCCCC[C@H](C)Oc2ccc(NS(=O)(=O)c3ccc(F)cc3)cc2C1=O returned Vaccinia stage 13 and Vaccinia stage Venus 6.
CN(C)C(=O)C[C@@H]1CC[C@H]2[C@@H](COC[C@@H](O)CN2CC2CCCC2)O1 was read as Vaccinia stage 8 and Vaccinia stage Venus 6.
OC[C@H]1[C@@H](c2ccc(Br)cc2)[C@H]2CN(Cc3ccccn3)CCCCN21 was read as Vaccinia stage -3 and Vaccinia stage Venus -3.
COc1cccc(-c2ccc3c(c2)[C@@H]2[C@@H](CCN2C(=O)c2cccc(F)c2)[C@@H](CO)N3)c1 was read as Vaccinia stage -23 and Vaccinia stage Venus -11.
C[C@@H]1CCCCO[C@H](CN(C)Cc2ccc(C(F)(F)F)cc2)[C@H](C)CN([C@@H](C)CO)C(=O)c2cc(NS(=O)(=O)c3ccc(Cl)cc3)ccc2O1 was read as Vaccinia stage inconclusive.
`O=C(c1cccnc1)N1CC(=O)N2[C@@H](CO)[C@@H](c3ccc(/C=C/c4ccccc4)cc3)[C@@H]2C1` gave Vaccinia stage inconclusive.
Screening COc1ccc(-c2ccc([C@@H]3[C@H](C#N)N(C(=O)NC4CCCC4)[C@H]3CO)cc2)cc1 returned Vaccinia stage -22 and Vaccinia stage Venus -10.
`N#Cc1ccc(-c2ccc3c(c2)[C@@H]2[C@@H](CCN2C(=O)C2CCC2)[C@H](CO)N3)cc1` gave Vaccinia stage -17 and Vaccinia stage Venus -9.
For CNC[C@H]1Oc2c(NC(=O)c3nc4ccccc4s3)cccc2C(=O)N([C@H](C)CO)C[C@H]1C the results were Vaccinia stage 1 and Vaccinia stage Venus 12.
`C[C@@H]1CN([C@@H](C)CO)S(=O)(=O)c2ccc(Br)cc2O[C@H]1CN(C)S(=O)(=O)c1ccccc1` gave Vaccinia stage -32 and Vaccinia stage Venus -25.
`C[C@H]1CN([C@@H](C)CO)C(=O)c2cccc(NC(=O)Nc3ccc4c(c3)OCO4)c2O[C@H]1CN(C)CC1CCCCC1` gave Vaccinia stage -16 and Vaccinia stage Venus -15.
`COc1ccc(NC(=O)N(C)C[C@@H]2Oc3ccc(NC(=O)Cc4ccccc4)cc3C(=O)N([C@@H](C)CO)C[C@H]2C)cc1` gave Vaccinia stage 13 and Vaccinia stage Venus 16.
`COCC(=O)Nc1ccc2c(c1)C(=O)N(C)C[C@@H](OC)[C@H](C)CN(Cc1ccccc1F)[C@@H](C)CO2` gave Vaccinia stage -16 and Vaccinia stage Venus -11.
OC[C@@H]1Nc2ccc(C#Cc3ccc(F)cc3)cc2[C@H]2NCC[C@@H]12 was read as Vaccinia stage -33 and Vaccinia stage Venus -23.
For CNC[C@@H]1Oc2ccc(NS(=O)(=O)c3ccc(F)cc3)cc2CC(=O)N([C@H](C)CO)C[C@@H]1C the results were Vaccinia stage 0 and Vaccinia stage Venus -1.
CNC[C@@H]1Oc2cc(C#Cc3ccc(OC)cc3)ccc2S(=O)(=O)N([C@@H](C)CO)C[C@H]1C was read as Vaccinia stage -29 and Vaccinia stage Venus -22.
O=C(C[C@H]1C[C@@H]2c3cc(NC(=O)C4CCOCC4)ccc3O[C@@H]2[C@@H](CO)O1)NCc1ccc(Oc2ccccc2)cc1 was read as Vaccinia stage -25 and Vaccinia stage Venus -13.
C[C@@H]1CN([C@H](C)CO)C(=O)c2cc(C#Cc3ccccc3F)cnc2O[C@@H]1CN(C)C(=O)Cc1ccncc1 was read as Vaccinia stage -11 and Vaccinia stage Venus -15.
`CNC[C@@H]1Oc2cc(Br)ccc2S(=O)(=O)N([C@@H](C)CO)C[C@H]1C` gave Vaccinia stage 22&-9 and Vaccinia stage Venus 16&4.
For CN1CCN(C(=O)C[C@@H]2CC[C@H]3[C@@H](COC[C@@H](O)CN3CC3CCCC3)O2)CC1 the results were Vaccinia stage -8 and Vaccinia stage Venus -7.
`CC(C)CC#Cc1ccc([C@@H]2[C@@H](CO)N3C(=O)CN(C(=O)CN4CCOCC4)C[C@H]23)cc1` gave Vaccinia stage -3 and Vaccinia stage Venus -6.
CCCC#Cc1ccc([C@@H]2[C@@H](CO)N3C(=O)CN(C(=O)NCCC)C[C@@H]23)cc1 was read as Vaccinia stage 12 and Vaccinia stage Venus 7.
O=C1CCCn2cc(nn2)COC[C@@H](Cc2ccccc2)N1 was read as Vaccinia stage 9 and Vaccinia stage Venus -2.
For O=C(C1CCCC1)N1CC2(C1)[C@H](c1ccccc1)[C@H](CO)N2C(=O)c1cccnc1 the results were Vaccinia stage 16 and Vaccinia stage Venus 10.
Screening C[C@H](CO)N1C[C@H](C)[C@H](CN(C)Cc2ccc3c(c2)OCO3)Oc2c(NS(=O)(=O)c3ccccc3)cccc2C1=O returned Vaccinia stage 3 and Vaccinia stage Venus 2.
For C[C@@H]1CN([C@@H](C)CO)C(=O)Cc2cc(NC(=O)Cc3ccccc3)ccc2O[C@@H]1CN(C)S(=O)(=O)c1ccc(Cl)cc1 the results were Vaccinia stage inconclusive.
For O=C(NC1CCC1)[C@H]1[C@H](CO)[C@H]2Cn3c(ccc(-c4cncnc4)c3=O)[C@@H]1N2CCc1ccccc1 the results were Vaccinia stage 17 and Vaccinia stage Venus 7.
For COc1ccccc1NC(=O)N[C@H]1CC[C@@H](CCNS(=O)(=O)c2ccc(F)cc2)O[C@H]1CO the results were Vaccinia stage -7 and Vaccinia stage Venus -4.
Screening CNC[C@H]1Oc2ccc(NC(=O)Nc3ccc(OC)cc3)cc2CC(=O)N([C@H](C)CO)C[C@H]1C returned Vaccinia stage 8 and Vaccinia stage Venus 12.
For COCC(=O)Nc1ccc2c(c1)[C@@H]1C[C@H](CC(=O)NCc3ccncc3)O[C@@H](CO)[C@@H]1O2 the results were Vaccinia stage -4 and Vaccinia stage Venus -4.

Only part of the results is shown; the hit share may differ from the screen's.
